# D2 potentiator: positive allosteric modulators of human D2 dopamine receptor. DiscoveRx D2 beta-arrestin cells, luminescence, 90 min; 100% = 57 uM dopamine signal. potentiation, % (concentration not given with the values). actives 0.23% (n = 360,000); active = potentiation of 50% or more; inconclusive = 30% to 50%; inactive = 30% or less;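 also: compound concentration not given in the record; tested on top of an EC20 dose of dopamine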
#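 D2 cells co-treated with compound plus 50 nM dopamine (EC20) for 90 min at 37 deg C to detect potentiation. Beta-arrestin recruitment was read as enzyme-fragment luminescence after 1 h at ambient temperature. Full response was set by 57 uM dopamine.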
# PINK1 expr mod: changes PINK1 expression; actives 0.2% (n = 410,000); PINK1 immunofluorescence, high-content cytometry, 24 h; Potency, µM (doses to about 76.6 µM), without a hit: at the highest dose activation (PINK1 increase), usual class: activators; AID 624263; active = well fitted activation curve with a large enough effect; inconclusive = small, poorly fitted or top-dose-only effect; inactive = flat fitted curve, though single readings scatter; cell line not stated here;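 also: potency is read from the fitted curve at half-maximal effect; % of control where 0% means no effect; nearly all actives have a fitted effect of over 65% in size; a mitochondrial uncoupler was the plate control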
#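 PINK1 protein, normally rapidly degraded, was detected by immunofluorescence after 24 hour compound treatment of a stable cell line. Titration data (5 concentrations) came from laser-scanning cytometry, with CCCP-treated wells as controls.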
# TRPML1 ag: human mucolipin-1 channel agonism | AID 624414 | TRPML1-expressing cells, Ca2+ dye fluorescence, FDSS; host cell line not named in the record; reference of the full effect not given here | activation, % (no concentration beside the values) | Q9GZU1 | actives 0.12% (n = 410,000); in the data active = activation above about 50%; inconclusive = about 30% to 50%; inactive = below about 30%; also: 0% is about no effect; the text of the record puts the active cut at 80%
#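 Tet-induced TRPML1-DL cells, 1,500 per well, cultured overnight, were loaded with a no-wash Ca2+ dye for 45–90 min. Calcium fluorescence was recorded on the FDSS for 110 s after compound addition, before the EC80 agonist (4 uM 54-4) was added.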
# TRPML1 blocker: inhibitors of human TRPML1 channel | actives 0.02% (n = 390,000) | activity change, negative = inhibition, % (concentration not given with the values) | Q9GZU1 | TRPML1-inducible cells, Ca2+ dye fluorescence, FDSS; hits give low values; inhibition of EC80 agonist-evoked calcium signal; in the data active means activity change below about -50%; inconclusive means about -30% to -50%; inactive means above about -30%;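 also: stimulus is agonist 54-4 at its EC80 concentration; % is scaled to controls: 0 for no effect and ±100 for the full control effect; compound concentration not given in the record; the text of the record puts the active cut at -80%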
#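 Tet-induced TRPML1-DL cells loaded with Ca8 no-wash calcium dye were read kinetically on FDSS. Compound addition was followed by EC80 agonist 54-4 (4 uM final); inhibition was read over 110 s.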
# Six1-Eya2 blk: blocks human Six1 binding to Eya2. Q15475+O00167. AlphaScreen GST-Six1/His-Eya2 binding, biochemical; hits give low values; control for the full effect not named in the record. activity change, % (concentration not given with the values). actives 0.56% (n = 360,000). AID 651725; in the data active = activity change below about -65%; inconclusive = about -30% to -65%; inactive = above about -30%; also: % is scaled to controls: 0 for no effect and ±100 for the full control effect
# Target sequence (O00167 whole entry, looked up): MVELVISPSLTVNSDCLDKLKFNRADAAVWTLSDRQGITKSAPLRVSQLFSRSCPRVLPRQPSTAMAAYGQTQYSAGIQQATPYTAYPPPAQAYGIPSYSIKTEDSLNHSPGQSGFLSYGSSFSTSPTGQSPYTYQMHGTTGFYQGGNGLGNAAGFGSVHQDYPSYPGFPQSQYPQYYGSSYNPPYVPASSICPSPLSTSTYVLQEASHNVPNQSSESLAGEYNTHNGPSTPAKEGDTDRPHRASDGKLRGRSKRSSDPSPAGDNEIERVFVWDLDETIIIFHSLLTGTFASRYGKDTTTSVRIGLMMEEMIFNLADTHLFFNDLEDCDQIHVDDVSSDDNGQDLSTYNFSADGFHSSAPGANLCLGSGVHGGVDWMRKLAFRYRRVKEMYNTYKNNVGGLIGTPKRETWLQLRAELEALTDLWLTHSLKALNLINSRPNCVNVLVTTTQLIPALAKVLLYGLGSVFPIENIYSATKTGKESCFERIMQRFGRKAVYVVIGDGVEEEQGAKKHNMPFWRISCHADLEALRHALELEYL
# Target sequence (Q15475 whole entry, looked up): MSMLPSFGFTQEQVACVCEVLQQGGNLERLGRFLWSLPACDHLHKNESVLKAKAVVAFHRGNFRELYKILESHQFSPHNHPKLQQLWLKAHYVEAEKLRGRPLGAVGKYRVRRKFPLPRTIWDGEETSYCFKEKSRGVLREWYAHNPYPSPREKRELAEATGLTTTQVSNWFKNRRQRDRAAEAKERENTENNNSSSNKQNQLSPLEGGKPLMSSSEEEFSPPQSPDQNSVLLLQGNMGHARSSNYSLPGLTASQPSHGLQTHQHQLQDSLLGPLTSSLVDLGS
#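 AlphaScreen luminescence read after one hour at 37 °C in darkness. Pin-transferred compounds met GST-Six1 and His-Eya2 protein (5X stock 250 nM/500 nM) plus glutathione donor and Ni-chelate acceptor beads (5X, 50 ug/mL).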
# D2 ag: agonists of human D2 dopamine receptor (beta-arrestin); P14416; DiscoveRx PathHunter D2 beta-arrestin, luminescence, 90 min; 100% = 57 uM dopamine signal; activation, % (concentration not given with the values); actives 0.084% (n = 360,000); AID 624465; in the data active = activation above about 40%; inconclusive = about 15% to 40%; inactive = below about 15%; also: compound concentration not given in the record; the text of the record calls up to 30% inactive
#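 DiscoveRx PathHunter D2 beta-arrestin cells (2,100/well) attached overnight, then compound-stimulated 90 min at 37 C in HBSS/10 mM HEPES/0.1% Tween-20 buffer; beta-galactosidase complementation read by luminescence after 1 h at ambient temperature. Dopamine 57 uM final (EC100) as control.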
# Starred values were filed as active, the others as inactive; u = inconclusive; x = no result given; & = joins results of further samples; [ ] = remark or other dose.
smiles,D2 ag,TRPML1 ag,TRPML1 blocker,PINK1 expr mod,Six1-Eya2 blk,D2 potentiator
Cc1cccc(COCC(Cc2ccccc2)N2CCN(C(=O)c3ccc(Cl)c(Cl)c3)CCC2=O)c1 (stereo unspecified),4.0,0.1,13,3.8%,-10,-2
COc1ccc(CN(C)C(c2ccccc2)c2nnnn2-c2ccccc2C)c(OC)c1C (stereo unspecified),-2.7,0.9,9,-0.3%,-6,4
CCOc1ccccc1N1CCN(Cc2cc3c(cc2[N+](=O)[O-])OCO3)CC1,-0.4,-0.5,-2,2.7%,-23,-25
CCOCCCNS(=O)(=O)c1ccc2c(c1)CCN2C(=O)CC,-0.6,-0.3,5,-0.8%,-2,-3
O=C(NNC(=O)c1cc(-c2ccncc2)nc2ccccc12)c1ccccc1O,0.7,0.3,12,2.0%,-16,-2
CCOC(=O)c1ccc(NC(=O)COC(=O)c2cn(CC)c3nc(C)ccc3c2=O)cc1,x,-0.6,-1,2.0%,x,x
Cn1nnc2c(NCc3ccco3)nccc21,-3.0,-0.3,4,2.1%,-1,-5
Cc1ccc(-c2nc3ccccc3c(=O)n2NC(=O)COc2ccccc2)cc1,-1.7,1.3,-22,0.5%,-16,-8
CC(=O)Nc1ccc2c(c1)CCCC2,-4.6,2.2,-8,1.0%,9,-5
Cc1ccc(C)c(S(=O)(=O)c2nnn3c2nc(Nc2ccc(F)c(Cl)c2)c2sccc23)c1,x,-0.1,-8,-0.3%,x,x
COC(=O)Cc1ccc(NC(=S)NCc2cccc(OC)c2)cc1,5.4,-0.3,4,0.0%,-2,-2
Cc1ccc(NS(=O)(=O)c2ccc(NS(=O)(=O)c3cccs3)cc2)cc1,0.9,3.6,-12,-1.7%[38.3 µM],7,5
CCOC(=O)Cc1ccc(NC(=O)N2CCOc3ccc(C)cc32)cc1,x,-0.1,-4,0.3%,x,x
Cc1ccc(Nc2nc(-c3ccc(S(=O)(=O)N4CCOCC4)cc3)cs2)cc1,2.1,0.7,-1,22%[38.3 µM],-2,3
CCOC(=O)Cn1c(=O)oc2cc(S(=O)(=O)NCc3ccccn3)ccc21,-2.7,0.5,-7,3.6%,2,-5
Brc1ccc(OCCN2CCOCC2)cc1,-0.9,-0.8,-16,0.8%,-13,-28
CC(C)(C)NC(=O)CSc1nncn1-c1ccccc1,-1.0,-0.2,-5,x,2,0
CNS(=O)(=O)c1ccc(NC(=O)Nc2ccc3c(c2)OCO3)cc1,1.4,0.1,-3,-1.1%,-17,-11
Cc1ccc(-c2noc(-c3cccs3)n2)cc1,-0.8,1.0,-7,x,42,-8
CCC1CCc2c(sc(NC(=O)c3cnccn3)c2C(N)=O)C1 (stereo unspecified),0.3,-0.1,-8,3.2%,0,-2
CS(=O)(=O)N1CCN=C1SCc1cccc(F)c1,9.1,-0.5,5,0.8%,-1,3
O=C1OCCN1C(=O)[C@H]1[C@H](c2ccc(Cl)cc2)C(c2ccccc2)=NN1c1ccc(Br)cc1,1.1,-0.7,34,0.1%,38,x
CC1CCN(C(=O)CS(=O)(=O)Cc2ccccc2)CC1,3.1,-0.1,-4,0.3%,10,0
COc1ccc(NC(=O)c2scc(S(=O)(=O)C(C)C)c2N)cc1,-8.1,-0.7,5,5.8%,-1,-10
N#Cc1cccnc1N1CCN(C(=O)COCC(=O)O)CC1,-1.6,-0.5,5,-0.5%,8,-22
Cc1c(C)c2ccc(OCC(=O)NC3CCN(Cc4ccccc4)CC3)cc2oc1=O,-8.8,-0.4,-5,-1.5%,-3,-32
Cc1ccccc1C(=O)Nc1ccc(O)cc1C(=O)O,1.5,-0.2,23,-1.1%,-6,-8
O=C(N/N=C/C=C/c1ccccc1)c1cccs1,-3.7,0.3,-3,1.3%,4,-15
C[C@H]1C=C(C(=O)O)O[C@@H](OCc2ccc(CO)cc2)C1,1.4,1.0,-4,-0.2%,2,-1
O=[N+]([O-])c1cc(C(F)(F)F)cc([N+](=O)[O-])c1NCc1cccnc1,7.8,-0.8,37,-1.4%,-1,26
Cc1c(C(C)CCCO)oc(=O)c2c1Oc1c(C)c(C(C)C[C@H](C)O)oc(=O)c1C2 (stereo partly specified),2.7,-0.6,-4,0.4%,3,1
Cc1ccc2c(=O)c(C(=O)c3ccccc3)cn(CC(=O)Nc3ccc4c(c3)OCCO4)c2n1,x,-0.1,12,13%,x,x
COc1cccc(CC(=O)Nc2nc(-c3cccnc3)cs2)c1,2.9,-0.5,-20,1.7%,-1,1
Cn1c(=O)n(C)c2cc(S(=O)(=O)Nc3ccccc3C(=O)O)ccc21,-1.4,-0.4&-0.4,-21&10,1.8%&1.0%,-8,0
CCc1ccc(S(=O)(=O)c2cn(C)c3ccc(C)cc3c2=O)cc1,x,-1.2,-4,-0.2%,x,x
COc1ccc(-c2n[nH]c3c2CN(C(=O)c2ccc(F)cc2)CC3)cc1,0.2,-0.5,17,0.9%,-2,6
C=CCn1c(SCC(=O)Nc2ccc(F)cc2F)nnc1-c1cnccn1,-3.2,-0.4,-6,-0.7%,0,-36
Cc1ccc(NC(=O)N2CCN3CCCCC3C2)cc1F (stereo unspecified),x,0.0,-2,0.7%,x,x
O=S(=O)(c1cccc2nsnc12)N1CCN(C/C=C\c2ccccc2)CC1,-0.1,0.3,-4,-3.7%[38.3 µM],-21,-21
CCN(CC)CCNC(=O)Cn1ncc2c3ccccc3n(Cc3ccccc3C)c2c1=O,x,1.1,2,2.6%,x,x
CC(=O)N1CCN(C(=O)c2ccc(-c3ccccc3Cl)o2)CC1,-3.6,-0.1,2,-0.9%,-1,-8
CCC(=O)N1CCc2cc(Br)cc(S(=O)(=O)N3CCC(C(=O)Nc4ccc(OC)cc4)CC3)c21,x,1.9,-6,-0.1%,x,x
C=CCNC(=S)N1CCN(Cc2ccc3c(c2)OCO3)CC1,-0.4,x,x,-0.5%,2,-8
COC(=O)CSc1nnc2c3c4c(sc3nc(-n3nc(C)cc3C)n12)COC(C)(C)C4,-1.3,0.0,-1,4.7%,-11,-2
COc1ccc(C#Cc2c(-c3ccc(OC)cc3)oc3ccc(-c4ccc5c(c4)OCO5)cc23)cc1,-0.7,-0.8,-9,1.0%,0,-4
O=C(OCC(=O)c1ccccc1Cl)c1cnccn1,-8.0,-0.2,-10,2.9%,-1,-23
CCOc1cc(/C=N/NC(=O)c2nnn(-c3nonc3N)c2C)ccc1OCc1cccc(F)c1,-1.9,3.3,3,8.1%,3,-5
Cc1c(Br)c(C(F)(F)F)nn1CC(=O)N(C)C1CCCCC1,0.7,-0.3,4,5.4%,4,1
COc1ccc(NC(=O)CN(C)C(=O)c2cccc(S(=O)(=O)N3CC4(C)CC3CC(C)(C)C4)c2)cc1 (stereo unspecified),-2.2,0.3,10,-2.4%,-3,7
NS(=O)(=O)c1cc2c(cc1Cl)NC(C1C[C@H]3C=C[C@@H]1C3)NS2(=O)=O (stereo partly specified),-5.5,-0.1,18,2.3%,0,-9
CCn1cc(/C=C(\NC(=O)c2ccc(OC)c(OC)c2)C(=O)N2CCN(C)CC2)c2ccccc21,0.0,0.2,-20,1.0%,-1,-2
c1ccc(Cn2c3ccccc3c3nnc(SCCN4CCCCC4)nc32)cc1,-1.9,0.2,-12,0.8%,0,-17
COc1ccc2[nH]c(C)c(CN3CCCCC3)c(=O)c2c1,-0.7,-0.2,-1,x,4,6
NS(=O)(=O)c1ccc(NC(=S)NCc2ccc3c(c2)OCO3)cc1,-6.8,-0.9,-4,2.3%,-1,-5
Cc1ccccc1C(=O)NCC(=O)OC(C)C(=O)Nc1ccnn1C(C)C (stereo unspecified),-3.8,-0.1,-6,0.2%,4,6
N#CC1=C(SCC(N)=O)NC(=O)CC1c1cccc2ccccc12 (stereo unspecified),0.2,-0.6,27,-0.6%,-6,-3
O=S1(=O)c2ccc(Br)cc2OC(COCc2ccccc2)CN1Cc1ccccc1 (stereo unspecified),-2.1,4.0,23,0.9%,11,-6
O=c1[nH]c(=S)[nH]c2c1C(c1ccc(Cl)c(Cl)c1)OC(CCc1ccccc1)C2 (stereo unspecified),x,-0.1,x,u,-22,x
CCn1c(O)c(C#N)c(C)cc1=O,11,-0.2,14,0.0%,-1,9
O=C1[C@H]2[C@@H](C3CC3)N3C(=O)CN(Cc4ccccn4)C(=O)[C@@]3(Cc3ccccc3)[C@H]2C(=O)N1c1ccccc1,-4.6,0.1,36,0.0%,11,-7

# Reprinted from the part before: 3 entries, then new ones.
smiles,D2 ag,TRPML1 ag,TRPML1 blocker,PINK1 expr mod,Six1-Eya2 blk,D2 potentiator
O=c1[nH]c(=S)[nH]c2c1C(c1ccc(Cl)c(Cl)c1)OC(CCc1ccccc1)C2 (stereo unspecified),x,-0.1,x,u,-22,x
CCn1c(O)c(C#N)c(C)cc1=O,11,-0.2,14,0.0%,-1,9
O=C1[C@H]2[C@@H](C3CC3)N3C(=O)CN(Cc4ccccn4)C(=O)[C@@]3(Cc3ccccc3)[C@H]2C(=O)N1c1ccccc1,-4.6,0.1,36,0.0%,11,-7
COC(=O)c1ccccc1S(=O)(=O)N(CCCO)Cc1cc2c(C)ccc(C)c2[nH]c1=O,-3.1,0.1,31,-5.3%[38.3 µM],0,-10
Cc1cccc(C(=O)Oc2ccc(/C=N/NC(=O)c3ccncc3)cc2)c1,2.1,-1.0,23,1.1%,-5,-17
CCOC(=O)c1sc(NC(=O)CSC(=S)N2CCOCC2)nc1C,1.8,0.5,5,0.3%,-16,-6
C=C(C)Cn1c(SCC(=O)Nc2cccc(C)c2)nc2sc3c(c2c1=O)CCCC3,x,-0.7,24,2.7%,x,x
Cc1cc(C)c(NC(=O)CCCn2c(C)c3cnn(-c4ccccc4)c(=O)c3c2C)c(C)c1,x,0.1,21,0.0%,x,x
O=C(/C=C/c1ccccc1)NCCS(=O)(=O)N1CCN(c2ccc(F)cc2)CC1,0.3,0.3,11,8.5%,-6,-2
O=C(NCc1cccnc1)c1ccc(Cl)c(S(=O)(=O)Nc2ccccc2C(=O)NCc2cccnc2)c1,0.2,0.5,3,3.5%,-6,-2
CCCCCC(=O)N/N=C/c1ccccc1[N+](=O)[O-],-1.8,0.7,6,2.1%,-2,-6
CCn1nc(C)c(Br)c1C(=O)Sc1ccccc1Cl,-2.0,0.7,-16,7.6%,7,-13
Cc1cccc(Cn2nnc3ccccc32)c1O,-3.8,-0.5,-6,1.1%,-2,-5
CC(OC(=O)CNC(=O)c1ccco1)C(=O)N(C)c1ccccc1 (stereo unspecified),4.1,0.3,3,-2.2%,-3,-1
COc1ccc(S(=O)(=O)N(C)C)cc1NC(=O)COc1ccc2c(c1)CCC2,-1.4,2.4,34,0.0%,-7,-21
CC(C)CC(N)c1csc(Nc2ncccn2)n1 (stereo unspecified),-7.4,-0.6,x,0.1%,u,-10

# Source: PubChem
